# Source: PubChem
# Ba CapD inh – inhibitors of Bacillus anthracis CapD enzyme | purified CapD enzyme, fluorescence intensity read-out; active compounds read low; some hits fall short of the stated cut | z-score (concentration not given with the values) | actives 0.23% (n = 140,000);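 active = z-score under -4 in either of two replicates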;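 also: stock transfer was 100 nL into about 40 µL; score is relative to mean and spread of the plate; one replicate is shown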
# AID504770 – growth inhibitors of E. coli YBA685 in a screen for V. cholerae RctB (chromosome II replication) inhibitors; E. coli YBA685 rctB-dependent plasmid, OD600 growth, 3 h; active compounds read low; z-score (no concentration beside the values); actives 0.27% (n = 130,000); AID 504770;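 active = z-score under -2 on both plates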;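 also: wells of about 30 µL received 100 nL stock; score is relative to mean and SD of the test wells; the first replicate is given; strong numbers were not always called active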
# * = called active by the depositor; / = not tested or not shown.
SMILES,Ba CapD inh,AID504770
COc1ccccc1CNC(=O)C1COc2ccccc2O1 (stereo not given),-0.17,-0.55
CSc1nc2ccccc2c(=O)n1CC1CCCCC1,-0.18,-1.9
CCOC(=O)N1C/C(=C\c2ccccc2)C(=O)/C(=C/c2ccccc2)C1,-0.095,-0.15
COCCNC(=O)c1ccc2c(c1)sc1nc(-c3ccccc3)cn12,26,-0.6
O=C(Nc1ncn[nH]1)c1ccco1,-0.89,-1.3
CC1(c2ccccc2)OC(=O)C(=Cc2ccc(O)cc2)C(=O)O1 (stereo not given),-0.85,-0.85
O=C(O)CC(C1CC=CCC1)N1Cc2ccccc2C1=O (stereo not given),0.24,-0.2
COc1cc2c(cc1NC(=O)Cc1ccccc1)oc1ccccc12,-0.035,0
COc1cc(OC)cc(C(=O)Nc2ncn[nH]2)c1,/,-0.25
c1cc(-c2noc(C3CCNCC3)n2)ccn1,-0.43,/
COc1ccc(C2CC(C(F)(F)F)n3nc(C(=O)N4CCN(Cc5ccccc5)CC4)cc3N2)cc1 (stereo not given),-0.1,/
CCOC(=O)Cn1c(=O)oc2cc(S(=O)(=O)NCCOC)ccc21,-1.1,0.95
CC1(C)C(=O)OC(/C=C\c2ccccc2)C(C)(C)C1=O (stereo not given),0.06,0.05
CC(C)n1cc(-c2ccc(C(=O)NCCc3ccccc3)cn2)cn1,1.2,/
CC1CC(=O)Nc2ccccc2N1C(=O)c1ccc(F)cc1F (stereo not given),0.075,-0.2
O=C(Nc1ccc2c(c1)OCO2)c1cncc(NS(=O)(=O)c2ccccc2)c1,3.3,-0.05
O=C(CSC1=NCCCN1)N1CCCCC1,-0.93,-0.4
COC(=O)c1sc(S(C)=O)c(-c2ccon2)c1C (stereo not given),0.28,2.1
COc1ccc(NC(=O)c2ccccc2NC(=O)c2cccc(S(=O)(=O)N3CCC(C)CC3)c2)cc1,-0.055,/
CCNS(=O)(=O)c1ccc2c(c1)Cc1cc(S(=O)(=O)NCC)ccc1-2,-0.15,/
C=CCc1ccccc1OCc1ccc(C(=O)O)cc1,-0.75,-0.95
CC(C)C(Nc1ccccc1)N1C(=O)CCC1=O (stereo not given),/,-0.4
Nc1c(C(=O)N2CCCCC2)sc2nc3c(cc12)CCC3,-0.56,-1.1
c1ccc2sc(-c3ccc4c(c3)OCCO4)nc2c1,/,1.1
COc1ccc(/C=C2\SC(=S)N(CCC(=O)N(CCC#N)c3ccccc3)C2=O)cc1OC,-1,/
# (list continues)
SMILES,Ba CapD inh,AID504770
CCSc1cc(C)c(C#N)c2nc3ccccc3n12,/,-0.4
CC1Oc2ccccc2OC1C(=O)Nc1ccccc1 (stereo not given),-1,-0.85
CC(C)CCNC(=O)C1C2C(=O)N(Cc3ccccc3)CC23C=CC1(C)O3 (stereo not given),1.2,0.25
C=CCn1c(=S)[nH]c2sc3c(c2c1=O)CC(C)(C)OC3,2.7,-0.55
N#CC(c1ccccc1)c1nc2cc(Cl)c(Cl)cc2nc1C(F)(F)F (stereo not given),-0.08,/
O=C(C1Cc2ccccc2CN1S(=O)(=O)c1cccs1)N1CCOCC1 (stereo not given),-0.11,-0.95
Cc1ccc(NC(=O)/C(C#N)=C\Nc2cccc(O)c2)cc1,/,-0.2
O=C1/C(=C/c2ccccc2)CC/C1=C1/NCCN1C1CC(=O)N(c2cccc(F)c2)C1=O (stereo not given),/,1.7
COc1ccc(C2C(C#N)=C(N)Oc3n[nH]c(-c4ccc5ccccc5c4)c32)cc1OC (stereo not given),0,/
CS(=O)(=O)n1nc(-c2cccnc2)nc1NCc1ccccc1,0.28,0.45
CC1CC(C)CN(C(=O)c2ccccc2NS(=O)(=O)c2ccc(F)cc2)C1 (stereo not given),-0.29,-0.15
CNc1nc(-c2cccs2)cc(C(F)(F)F)n1,22,1.1
N#CCn1c(COC(=O)C23CC4CC(CC(O)(C4)C2)C3)nc2ccccc2c1=O,/,1
Cc1ccc(NC2=CC(=O)CC(c3ccc(Cl)cc3)C2)cc1 (stereo not given),0.005,0.1
Cc1ccc(NC(C)C(=O)N/N=C/c2ccco2)cc1 (stereo not given),0.21,-0.55
O=C1CC(C(=O)Nc2nccs2)C(c2ccccc2)O1 (stereo not given),0.065,0.1
O=C(COC(=O)c1cccc(S(=O)(=O)N2CCCC2)c1)c1ccccc1,/,-0.4
CCn1cc(C(=O)Nc2ccccc2)c(=O)c2cc(Cl)ccc21,-0.56,0.7
CCc1nc(C)cn1S(=O)(=O)c1cc(OC)ccc1OC,-0.8,-0.7
Cc1c(N(CC(=O)NN=C2CCC(C(C)(C)C)CC2)S(=O)(=O)c2ccccc2)c(=O)n(-c2ccccc2)n1C (stereo not given),0.1,/
O=C(c1cc(NS(=O)(=O)c2ccccc2)ccn1)N1CCCCC1,-0.33,1.6
Cc1cc(C(=O)N2CCN(c3ccc(C(F)(F)F)cn3)CC2)c(C)o1,1.6,-0.4
O=C(c1cccs1)N1CCN(S(=O)(=O)/C=C/c2ccccc2)CC1,/,-0.2
C=CCN(C(=O)C1CC=CCC1)c1ccccc1 (stereo not given),-0.21,2
CCN(CC)C(=O)Oc1ccc2c(C(F)(F)F)cc(=O)oc2c1,0.89,0.45

# 3 structures from above, arranged by SMILES length, highest first.
SMILES,Ba CapD inh,AID504770
CCNS(=O)(=O)c1ccc2c(c1)Cc1cc(S(=O)(=O)NCC)ccc1-2,-0.15,/
C=CCn1c(=S)[nH]c2sc3c(c2c1=O)CC(C)(C)OC3,2.7,-0.55
CCc1nc(C)cn1S(=O)(=O)c1cc(OC)ccc1OC,-0.8,-0.7

# (next part)
SMILES,Ba CapD inh,AID504770
Cc1ccccc1Nc1nc(N)nc(COC(=O)[C@@H](NC(=O)c2ccco2)C(C)C)n1,/,-0.2
Cc1cccc(Cn2cnc3ccccc32)c1,-0.35,-0.75
CSc1ccccc1NC(=O)CN(C)C(=O)COc1ccc(-c2nnco2)cc1,/,0.05
CCN(C(=O)Cn1c(=O)n(Cc2ccco2)c(=O)c2ccccc21)c1ccccc1,0.15,0.8
COc1ccc(/C=N/O)cc1OC,/,1.4
CCn1c(=O)c2cc(C(=O)NCc3ccc(C)o3)sc2c2ccccc21,12,-0.6
COc1ccc(C(C)=O)cc1CSc1nc2ccccc2c(=O)n1NC(=O)Cc1ccccc1,-0.08,/
O=C(CCc1c[nH]c2ccccc12)N1CCN(c2ccccc2)CC1,/,0.9
COc1cc(C(=O)/C=C/Nc2ccc(N(C)C)cc2)cc(OC)c1OC,-0.29,2.5
N=C(N)SCc1ccc(Cl)c(Cl)c1,-0.17,/
Cc1cccc(Cn2cnc3c(NS(=O)(=O)C(F)(F)F)c(C)c(C)cc32)c1,0.045,/
Cc1cccc(NC(=O)c2ccc3c(c2)OCCO3)n1,0.45,/
O=C(Nc1ccc(-c2csnn2)cc1)c1cccs1,-1.2,2
NC(=O)c1ccc(S(=O)(=O)N2CCOCC2)cc1,1.4,0.7
Cc1ccc(SCc2ccccc2-c2nc3ccccc3[nH]2)cc1,-0.53,2.1
O=C1NCCc2c1[nH]c1ccc(Br)cc21,0.09,/
O=C(/C=C/c1ccco1)Nc1ccc2nc3n(c(=O)c2c1)CCCC3,0.47,0.4
CCCCNC(=O)C1CC(=O)N(CCC(C)C)C1 (stereo not given),0.4,1.2
CCn1c(CSc2nc3ccccc3s2)nnc1SCC(=O)N(c1ccccc1)C(C)C,/,-0.7
CN(C)C(=O)Oc1cccc(NC(=O)c2cc(Cl)cc(Cl)c2)c1,-0.5,-0.85
CCOC(=O)c1sc(NS(=O)(=O)c2ccccc2)nc1C,/,-0.65
CCN(CC)S(=O)(=O)c1ccc(Br)c2nsnc12,-0.49,/
Cc1nn(Cc2ccccc2)c(C)c1CCC(=O)O,/,-0.8
COc1ccc(-n2c(=S)[nH]c3cc(C(=O)N4CCN(c5ccccc5)CC4)ccc3c2=O)cc1,2.7,-0.9
Cc1cc(C)n(C(N)=S)n1,0.78,0.55

# Random excerpt: 6 entries already listed.
SMILES,Ba CapD inh,AID504770
COc1ccc(C(C)=O)cc1CSc1nc2ccccc2c(=O)n1NC(=O)Cc1ccccc1,-0.08,/
CCn1c(=O)c2cc(C(=O)NCc3ccc(C)o3)sc2c2ccccc21,12,-0.6
CCn1c(CSc2nc3ccccc3s2)nnc1SCC(=O)N(c1ccccc1)C(C)C,/,-0.7
COc1cc(C(=O)/C=C/Nc2ccc(N(C)C)cc2)cc(OC)c1OC,-0.29,2.5
CSc1ccccc1NC(=O)CN(C)C(=O)COc1ccc(-c2nnco2)cc1,/,0.05
N=C(N)SCc1ccc(Cl)c(Cl)c1,-0.17,/

# Other records.
SMILES,Ba CapD inh,AID504770
CCn1c(SCC(=O)OCC(=O)c2ccc(Br)s2)nnc1-c1cccs1,/,0.05
Cc1ccc(C)c(NCC(O)c2ccccc2)c1 (stereo not given),-0.49,0.9
CCC(=O)OCCN1C(=O)c2ccccc2C1=O,/,0.25
O=C(c1cncn1-c1ccccc1)N(Cc1ccco1)Cc1cccs1,/,-1.4
COc1ccc(C2Oc3ccc(Br)cc3C3CC(c4ccccc4)=NN32)cc1OC (stereo not given),-0.03,/
CCN1C(=O)C2(C(C#N)=C(N)SC(N)=C2C#N)c2ccccc21,/,-0.8
CCOC(Cn1c(C(C)O)nc2ccccc21)OCC (stereo not given),0.13,-0.45
COc1ccc(C(CN)N2CCOCC2)cc1 (stereo not given),/,-0.5
CN(C)S(=O)(=O)c1cccc(C(=O)OCC(=O)N2N=C3/C(=C/c4ccco4)CCCC3C2c2ccco2)c1 (stereo not given),/,0.85
O=C(NCCCN1CCCCCC1)c1cc2c(s1)-c1ccccc1OC2,83,-0.1
CC1(C)CC(C(CC#N)c2ccc(F)cc2)CCO1 (stereo not given),-0.13,-0.8
O=C(CCn1[nH]c(=O)ccc1=O)Nc1nc(SCc2ccc(Cl)cc2)n[nH]1,/,-0.05
COc1cc(OC)c(CN2C(=O)c3c(C(C)C)nc4ccccc4c3C2=O)c(OC)c1,0.52,/
COc1ccc(CCNC(=O)C2CCN(Cc3nc(-c4ccccc4F)oc3C)CC2)cc1OC,46,-0.15
O=C(COc1ccccc1)NCCn1ccc2ccccc21,/,0.35
CC1(C)CC(=O)c2sc(NC(=O)c3ccc(S(=O)(=O)N4CCOCC4)cc3)nc2C1,-1.1,/
O=[N+]([O-])c1ccc(-c2nc(-c3ccccc3)[nH]c2-c2ccc(Oc3ccc(-c4nc(-c5ccccc5)[nH]c4-c4ccc([N+](=O)[O-])cc4)cc3)cc2)cc1,-0.48,/
COc1ccccc1/C=C1\N=C(c2ccc(OC)c(OC)c2)N(c2ccc(OC)c(OC)c2)C1=O,0.01,/
CNc1oc(-c2ccc(Cl)cc2)nc1S(=O)(=O)c1ccc(C)cc1,8.5,0.55
O=C(Nc1ccccc1)Nc1ccc(C2SCCS2)cc1,1.5,-0.55
CC(C)(C)C1CCNCC1,/,0.15
Cc1cc(OCC(=O)Nc2cccnc2)c(C)cc1Br,-0.23,0.15
COc1ccc(-n2c(SCC(N)=O)nc3c(c2=O)C2(CCCC2)Cc2ccccc2-3)cc1,0.67,/
C=CCN(C(=O)c1cc(OC)cc(OC)c1)c1nnc(-c2ccncc2)s1,-0.01,-1.2
COc1ccc(/C=C2\Sc3ccc(C(=O)N4CCOCC4)cc3N(C)C2=O)cc1OC,-0.68,1.7
# Additional results:
SMILES,Ba CapD inh,AID504770
O=C(OCC(=O)N1CCC(c2ccccc2)=N1)c1cc(=O)[nH]c2ccccc12,/,0.05
O=C(Nc1cccnc1)C(Cc1ccccc1)n1cccc1 (stereo not given),-0.73,-1.1
CCn1c(SC(C)C)nnc1-c1c[nH]c2ccccc12,/,0.85
CCOC(=O)Nc1ccc2c(CNCCCN3CCOCC3)cc(=O)oc2c1,/,-0.35
CCN1C(=O)CCC(C(=O)O)C1c1ccc(OC)cc1 (stereo not given),-0.97,-0.95
Cc1cc(C)nc(Nc2ncc(O)n2-c2ccc(C)c(C)c2)n1,-0.045,0.1
Nc1c(C(=O)Nc2ccc(Br)cc2)sc2nc3c(cc12)CCCCC3,3.9,/
O=C(CN1CCSCC1)Nc1nc(-c2ccccc2Cl)cs1,-0.26,/
CCc1c(C(=O)c2ccccc2)oc2c(C)c3oc(=O)cc(C)c3cc12,0.94,/
c1ccc2c(c1)CCCc1cc(NCCN3CCOCC3)nnc1-2,-0.44,/
COC(=O)c1ccc2c(c1)nc(SCC(=O)NCc1ccccc1)n1c3ccccc3nc21,1,/
CC1SC2(C(=O)Nc3ccccc32)N(c2ccc(Br)cc2)C1=O (stereo not given),0.55,/
O=C(Nc1ccccc1C(=O)N1CCN(c2ccccc2)CC1)c1cccc(S(=O)(=O)N2CCCCC2)c1,-0.95,/
Cc1cc(N2CCOCC2)nc(=S)[nH]1,/,-0.35
CCCN1CCN(CCCNC(=O)c2ccc3c(c2)sc2nc(-c4ccccc4)cn23)CC1,2.4,1.7
CCn1nc(C(=O)OCC(=O)Nc2ccccc2)c2ccccc2c1=O,/,-0.35
Cc1ccccc1Nc1nc(N)nc(COC(=O)c2ccccc2)n1,/,-0.05
Cc1ccc(S(=O)(=O)NC(=O)Nc2ccc(C(F)(F)F)cn2)cc1,-0.14,/
O=C(Nc1nccs1)c1c(O)c2c(n(Cc3ccco3)c1=O)CCCC2,1.4,/
N#CC1=C2N3CCCCCC3=NN2C(=O)NC1(c1ccccc1)C(F)(F)F (stereo not given),/,0.85
